Screening data as filed in PubChem BioAssay.
rRNA inh HTS = reduced GFP signal of wild-type E. coli, primary screen, bacterial rRNA inhibitor project, GFP/RFP fluorescence, OD600, single point | GFP signal change (wild-type ribosome), % (concentration not given with the values) | AID 720706, 2013 | E. coli WT GFP vs humanized-ribosome RFP mutants, 24 h; stronger effect = lower value; DMSO median 0, no signal -100 | 350,000 compounds, 1.6% hits;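 active = significant combined selectivity score with lowered wild-type GFP, culture density cut under 30%, mutant RFP and density less affected; inactive = any of these conditions unmet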; also: one replicate is shown; some compounds called inactive have numbers as strong as hits
UCH37 DUB inh = inhibitors of human UCH37 deubiquitinase, primary screen, biochemical, Ub-AMC cleavage, fluorescence | purified proteasome/UCH37 | AID 588478, 2011 | inhibition, % (concentration not given with the values) | 330,000 compounds, 0.33% hits | Ubiquitin carboxyl-terminal hydrolase isozyme L5 (Homo sapiens), Q9Y5K5;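 active = mean of two replicates above 20%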;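 also: 0% = compound-free wells with enzyme and 100% = wells lacking proteasome; stock transfer was 100 nL into about 20 µL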
Target sequence (Q9Y5K5 whole entry, looked up): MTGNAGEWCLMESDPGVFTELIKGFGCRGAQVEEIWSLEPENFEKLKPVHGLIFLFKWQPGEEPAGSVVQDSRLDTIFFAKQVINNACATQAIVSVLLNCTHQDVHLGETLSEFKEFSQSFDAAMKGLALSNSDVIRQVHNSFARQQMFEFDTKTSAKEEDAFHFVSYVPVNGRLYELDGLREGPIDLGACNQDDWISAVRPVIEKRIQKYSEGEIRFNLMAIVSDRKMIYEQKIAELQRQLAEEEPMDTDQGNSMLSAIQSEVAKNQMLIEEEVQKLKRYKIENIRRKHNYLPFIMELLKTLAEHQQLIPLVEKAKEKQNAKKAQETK
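Test system – human UCH37 enzyme supplied as purified proteasome complex · Incubation – 30 min preincubation with enzyme, 25 min cleavage at room temperature · Detection – AMC fluorescence from Ub-AMC cleavage, excitation 355 nm, emission 460 nm · Benchmarks – no-proteasome wells (full inhibition) and compound-free wells (no inhibition)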
E coli growth = E. coli growth inhibition, primary screen, OD600; Escherichia coli growth, 23 h; stronger effect = lower value; OD600 absorbance (no concentration beside the values); 330,000 compounds, 0.21% hits; AID 1053175, 2014;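 active = OD600 absorbance below the run mean of sample wells minus 3.6 SD, in any replicate, cut at about 0.56 in these data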;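 also: stock transfer was 300 nL into about 60 µL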
FGF22 binding = binders of human FGF22 protein, primary screen, FGF22 synaptogenesis inhibitor project, biophysical, thermal shift, single point. 340,000 compounds, 1.5% hits. Fibroblast growth factor 22 (Homo sapiens), Q9HCT0. recombinant FGF22 thermal shift, SYPRO orange fluorescence; percent of sucrose octasulfate shift, DMSO zero. calls only at 9.99 µM;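 active = melting point raised past a set limit in the mean and every replicate; three in four hits are not shown here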
Target sequence (Q9HCT0 whole entry, looked up): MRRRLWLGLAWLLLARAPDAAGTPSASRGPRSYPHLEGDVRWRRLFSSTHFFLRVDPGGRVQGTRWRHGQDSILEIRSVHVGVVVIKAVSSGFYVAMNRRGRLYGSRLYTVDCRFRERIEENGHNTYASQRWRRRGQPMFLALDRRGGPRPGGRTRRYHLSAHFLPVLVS
B2AR ag = beta2AR agonists driving receptor internalization, primary screen, cell-based, FAP fluorogen, flow cytometry | response, % (concentration not given with the values) | AID 504454, 2011 | Beta-2 adrenergic receptor (Homo sapiens), P07550 | 340,000 compounds, 0.43% hits | Am2.2-beta2AR cells; reference of the scale not given here;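 active = response above a set limit, near 3 SD of response in nonfluorescent compounds, cut at about 42% in these data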;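 also: stock transfer was 100 nL into about 11 µL; a reference agonist was the positive control; negative values mostly stem from fluorescent compounds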
Target sequence (P07550 whole entry, looked up): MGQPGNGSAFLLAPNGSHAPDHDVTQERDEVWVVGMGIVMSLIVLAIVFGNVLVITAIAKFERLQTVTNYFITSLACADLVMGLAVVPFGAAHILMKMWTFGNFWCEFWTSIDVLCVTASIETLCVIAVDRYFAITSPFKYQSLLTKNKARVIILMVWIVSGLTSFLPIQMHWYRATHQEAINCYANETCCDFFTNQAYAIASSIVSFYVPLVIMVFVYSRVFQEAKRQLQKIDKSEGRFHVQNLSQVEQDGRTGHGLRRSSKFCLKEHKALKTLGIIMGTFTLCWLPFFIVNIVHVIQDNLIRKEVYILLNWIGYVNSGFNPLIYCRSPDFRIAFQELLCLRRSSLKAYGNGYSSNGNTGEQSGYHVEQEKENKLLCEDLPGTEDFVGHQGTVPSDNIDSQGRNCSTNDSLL
HNF4A DNA FP = change in binding of human HNF4A to DNA, primary screen, biochemical, fluorescence polarization, FITC-DNA | AID 1224865, 2016 | 360,000 compounds, 0.3% hits | 1 h | activity change, % at 10 µM; in the data active = activity change above about 30%, passing the limit was not always enough;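 also: controls were the assay level and a saturating level of protein; the project sought stronger binding though the title names inhibitors; some compounds called inactive have numbers as strong as hits; positive values seem to mean higher polarization but the record does not say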
ALR inh = inhibitors of human ALR sulfhydryl oxidase, primary screen, biochemical, H2O2 detection, HRP-luminol luminescence, single point. purified ALR, DTT oxidation. 290,000 compounds, 3.8% hits. inhibition, % (no concentration beside the values). AID 485317, 2010;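 active = mean and each replicate at 75% or more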;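 also: stock transfer was 7.5 nL into about 7.5 µL; 0% = neutral wells and 100% = wells with inactivated enzyme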
rRNA inh HTS OD600 = second read-out of rRNA inh HTS, no call of its own (marks repeat the call); OD600 change, %; measured here: OD600 growth;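 optical density of the mix in the first replicate; 0 = DMSO median and -100 = no signal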
rRNA inh HTS RFP = recorded beside rRNA inh HTS, whose call it bears; RFP signal change, %; measured here: RFP humanized mutant strains;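 first replicate; 0 = DMSO median and -100 = no signal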
The depositor's hits bear a star; i = inactive; . = no result given.

SMILES	rRNA inh HTS	rRNA inh HTS OD600	rRNA inh HTS RFP	UCH37 DUB inh	E coli growth	FGF22 binding	B2AR ag	HNF4A DNA FP	ALR inh
Cc1ccc(O)c(NC(=O)C2CCCCC2)c1	-2	-5	0.9	6.0	0.68	i	8	3.2	73
CC(=O)Nc1ccc(NC(=O)C(C)OC(=O)C2CCN(S(=O)(=O)c3ccccc3C(F)(F)F)CC2)cc1 (stereo not drawn)	-9	-11	2.1	4.3	0.68	i	-1	3.7	.
Cc1ncc(CO)c2cc(C(=O)Nc3cccc(F)c3)c(=Nc3cccc(C(N)=O)c3)oc12	3	10	-3.9	5.6	0.76	i	7	2.4	-6
CCCOc1ccc(N2C(=O)CC(NCCCN3CCC(C(N)=O)CC3)C2=O)cc1 (stereo not drawn)	.	.	.	3.3	0.73	.	-3	-6.0	-1
CN1C(=O)c2cccc3c(S(=O)(=O)Nc4ccc(O)c(C(=O)O)c4)ccc1c23	3	7	-1.8	4.8	0.66	i	-8	1.1	-10
CCCC(=O)N(CCc1ccccc1)Cc1nc2ccccc2c(=O)[nH]1	.	.	.	-0.5	0.74	.	-24	5.0	-8
O=C1CCCN1Cc1ncnn1-c1ccccc1	.	.	.	-6.9	0.8	.	-7	-2.4	-2
Cc1cccc(NC(=O)C(C)Oc2ccc(C)nc2[N+](=O)[O-])c1 (stereo not drawn)	-3	-5	4.2	-0.7	0.69	i	-6	2.2	.
COc1ccc(CCNCC(=O)Nc2c(C)cc(C)cc2C)cc1OC	14	5	-3.1	.	.	.	-4	2.8	2
NS(=O)(=O)c1ccc(Sc2ccc3c(c2)CCC3)nc1	-11	-24	-1.2	5.5	0.68	i	-3	-3.4	39
COc1ccccc1NC(=O)c1cc(C(=O)Nc2ccccc2OC)n(C)n1	.	.	.	-8.7	0.64	i	3	1.0	-6
CCOC(=O)[C@H]1[C@H]2COc3ccc(Br)cc3[C@@H]2N2C(=O)CN(Cc3ccc(Cl)cc3)C(=O)[C@@]12C	1	-3	-8.1	-0.6	.	i	-1	3.3	-3
O=C(CCC1CCCCC1)NNC(=O)NC12CC3CC(CC(C3)C1)C2	.	.	.	3.1	0.68	.	-5	-2.6	5
O=C(/C=C/c1ccccc1)N/C(=C/c1ccccc1)C(=O)N1CCCCC1	.	.	.	6.1	0.67	.	0	0.1	15
Cc1cccc(-c2nc(CS(=O)CC(=O)NCC3CCCO3)c(C)o2)c1 (stereo not drawn)	.	.	.	5.8	0.75	i	-2	2.0	.
Nc1ccc2nc3n(c(=O)c2c1)CCC3	6	11	-0.6	-408	0.71	i	-2	2.0	-11
O=C(NCc1ccc2c(c1)OCO2)c1cccs1	.	.	.	4.4	0.61	.	0	2.6	3
COc1cc(NC(=O)C/C(C)=N/NC(=O)C(=O)NCCO)c(OC)cc1Cl	-52*	-29*	-15*	.	.	i	0	1.9	73
Cc1ccc(N2C(=O)[C@@H]3C(c4cccnc4)=NO[C@@H]3C2=O)c(C)c1	33	29	2.1	0.0	0.67	i	2	2.4	-15
CS(=O)(=O)N(CC(=O)N1CCN(c2ccccc2)CC1)c1ccc(Cl)c(C(F)(F)F)c1	.	.	.	-0.1	0.71	.	4	-0.9	5
O=C(Cn1nc(-c2ccccc2)nc1-c1ccccc1)OC1CCCCC1	-11	-13	-0.7	1.9	0.71	i	-5	-2.0	.
CCOc1ccc(NS(=O)(=O)c2ccc(C(=O)N(C)Cc3cccc(OC)c3OC)cc2)cc1	-30	-51	-8.3	3.3	0.72	i	-1	3.0	2
O=C(CN1CCC(C(=O)c2cccc(Cl)c2)CC1)Nc1ccc(C(=O)O)cc1	-13	-16	-1.0	6.6	0.69	i	4	0.4	-6
CC(=O)c1sc(NC(=O)c2ccc(F)cc2)nc1-c1ccccc1	3	15	-8.0	-18	0.7	i	-6	0.8	-1
O=C1N(Cc2cccc(Cl)c2)C[C@@H]2C[C@@H](c3cccn3-c3ccccn3)N3CCC[C@@]123	12	3	7.3	-0.3	0.68	.	6	3.3	3
CCN=C1SC(CC(=O)NC(N)=O)C(=O)N1CC (stereo not drawn)	.	.	.	5.1	0.71	.	-9	-2.9	.
Cc1cc(NS(=O)(=O)c2ccc(CC(C)C)cc2)no1	.	.	.	3.4	0.64	.	0	2.9	1
COc1ccc(-n2c(C)cc(C(=O)Cn3c(NCCO)nc4ccccc43)c2C)cc1	.	.	.	4.1	0.67	.	-1	0.4	.
CN(CCOc1ccccc1)C(=O)c1cc([N+](=O)[O-])cc([N+](=O)[O-])c1	21	16	1.2	4.3	0.69	i	-10	-0.1	-79
C(=N\c1nc2ccccc2n1Cc1ccccc1)/c1cccs1	.	.	.	.	.	.	-3	-0.9	4
c1ccc(N2CCN(Cc3cn4ccccc4n3)CC2)cc1	6	16	-2.7	-0.7	0.65	i	-8	-0.4	72
COc1ccc(N2CCN(C3CCCN(C(=O)CN4CCCC4=O)C3)CC2)cc1 (stereo not drawn)	7	0	4.3	2.6	0.71	i	7	-0.2	27
N=c1n(CCCOc2ccccc2Cl)c2ccccc2n1CC(N)=O	5	-8	-2.0	5.4	0.68	i	-3	-0.5	.
N#Cc1ccc(C23CC4(C2)[C@H](CN(P(=O)(c2ccccc2)c2ccccc2)[C@@H]4c2ccccc2)C3c2ccc(Cl)nc2)cc1 (stereo partly drawn)	.	.	.	1.6	.	.	25	-1.5	0
CCOC(=O)C1CCCN(C(=O)/C=C/c2ccc([N+](=O)[O-])cc2)C1 (stereo not drawn)	-6	-5	-3.3	8.5	0.72	i	5	7.4	.
FC(F)(F)c1cccc(NC(=S)NCc2ccccn2)c1	.	.	.	1.4	0.65	.	-3	-0.8	17
O=C(NCCc1c[nH]c2ccccc12)c1ccc2c(c1)OCO2	-8	-9	-0.5	3.1	0.67	i	-2	3.6	8
CSCCC(C(=O)NC(C)(C)C)n1c(-c2cccc(NC(C)=O)c2)nc2ccccc21 (stereo not drawn)	-2	10	-2.9	.	.	i	.	3.4	.
COc1ccccc1NS(=O)(=O)c1cc(N)ccc1N1CCCC1	.	.	.	-6.4	0.73	i	0	-3.4	.
CC(OC(=O)C1=Cc2ccccc2OC1)C(=O)NCc1ccco1 (stereo not drawn)	.	.	.	-19	0.69	i	-1	3.1	-10
Cc1c(C(=O)CN2CCN(c3ccccc3)CC2)c2ccccc2n1C	-2	-4	-1.5	4.9	0.68	i	-12	-2.1	12
CC1CCCCC1NC1=NCCCS1 (stereo not drawn)	.	.	.	1.9	0.63	.	.	.	-9
Cc1cccc(-n2ncc3c2CCCC3NC(=O)CCc2cccnc2)c1C (stereo not drawn)	-1	3	-1.6	1.3	0.63	i	1	-1.6	34
CC(C)=CC(=O)OCC(=O)Nc1cccc([N+](=O)[O-])c1	.	.	.	4.3	0.67	i	4	-1.2	-3
COc1cc(/C=C/C(=O)NC2CCCCC2)cc(OC)c1OC	14	9	-3.8	-7.0	0.65	i	3	0.2	-6
CCCCOc1ccc(S(=O)(=O)NC(=O)NCc2ccc(OCCC)cc2)cc1	13	10	0.5	-1.1	0.71	i	-12	-1.7	-10
COc1ccc(S(=O)(=O)Nc2cc(S(=O)(=O)c3ccccc3)c(O)cc2C)cc1	-36	-39	-4.5	5.7	0.7	i	17	-1.0	.
CCCCCOc1ccc(C(=O)Nc2ccc(N3CCOCC3)cc2N2CCOCC2)cc1	.	.	.	0.8	0.69	i	-2	-0.1	-6
COc1cc(C2c3[nH]c4ccccc4c3CC3COC(=O)N32)cc(OC)c1O (stereo not drawn)	-5	5	4.7	.	.	i	13	-0.2	.
CCCCCN(C(=O)CCC(=O)OCC(=O)c1c(C)cc(C)cc1C)c1c(N)n(CCCC)c(=O)[nH]c1=O	12	20	2.6	-0.3	0.71	i	3	7.0	-1

More structures follow:
SMILES	rRNA inh HTS	rRNA inh HTS OD600	rRNA inh HTS RFP	UCH37 DUB inh	E coli growth	FGF22 binding	B2AR ag	HNF4A DNA FP	ALR inh
C=CCON1C(=O)C(=O)N(OCC=C)[C@H]2CCCC[C@H]21	11	9	2.8	4.1	0.68	i	1	-3.0	.
COc1ccc(CNC(=O)COC(=O)Cc2ccc(Cl)cc2Cl)cc1	1	-3	1.6	0.3	0.68	i	2	0.8	1
O=C(NCc1cccnc1)c1cc(C2CCCCN2S(=O)(=O)c2cccs2)on1 (stereo not drawn)	3	2	4.6	.	.	i	.	2.0	.
CCCC(c1nnnn1CS(=O)(=O)c1ccc(C)cc1)N1CCN(c2ccccc2)CC1 (stereo not drawn)	.	.	.	6.5	0.77	.	1	1.0	4
O=C(COC(=O)c1ccc(F)cc1)Nc1nc2ccc([N+](=O)[O-])cc2s1	3	5	-2.2	4.2	0.73	i	3	2.3	-2
CCN(C(=O)COc1ccccc1[N+](=O)[O-])C1CCS(=O)(=O)C1 (stereo not drawn)	.	.	.	1.5	0.67	.	1	-0.1	6
COc1ccc(CCN2CC(C(=O)N3CCC(OC)CC3)CCC2=O)cc1 (stereo not drawn)	3	7	-2.9	0.4	0.69	i	-1	-2.4	11
c1ccc(-c2n[nH]c3c2CCC3)cc1	.	.	.	4.0	0.65	.	-1	-0.2	-7
Cc1cc(Br)cn2c(Cc3cccc(F)c3)c(-c3ccc(C#N)cc3)nc12	-24	-25	-1.4	.	.	i	.	20	.
COc1ccc(CNC(=S)Nc2cc(OC)ccc2OC)cc1	7	-6	-1.4	4.7	0.72	i	4	0.0	-54

Record cards (already shown). Values in the order: rRNA inh HTS, rRNA inh HTS OD600, rRNA inh HTS RFP, UCH37 DUB inh, E coli growth, FGF22 binding, B2AR ag, HNF4A DNA FP, ALR inh
Shown for CCCC(c1nnnn1CS(=O)(=O)c1ccc(C)cc1)N1CCN(c2ccccc2)CC1 (stereo not drawn) = ., ., ., 6.5, 0.77, ., 1, 1.0, 4
Shown for COc1ccc(CNC(=S)Nc2cc(OC)ccc2OC)cc1 = 7, -6, -1.4, 4.7, 0.72, i, 4, 0.0, -54
Shown for COc1ccc(CCN2CC(C(=O)N3CCC(OC)CC3)CCC2=O)cc1 (stereo not drawn) = 3, 7, -2.9, 0.4, 0.69, i, -1, -2.4, 11
Shown for CCN(C(=O)COc1ccccc1[N+](=O)[O-])C1CCS(=O)(=O)C1 (stereo not drawn) = ., ., ., 1.5, 0.67, ., 1, -0.1, 6
Shown for O=C(COC(=O)c1ccc(F)cc1)Nc1nc2ccc([N+](=O)[O-])cc2s1 = 3, 5, -2.2, 4.2, 0.73, i, 3, 2.3, -2

(listing goes on)
SMILES	rRNA inh HTS	rRNA inh HTS OD600	rRNA inh HTS RFP	UCH37 DUB inh	E coli growth	FGF22 binding	B2AR ag	HNF4A DNA FP	ALR inh
CN(c1ccc(C(=O)NCc2ccc3c(c2)OCO3)cc1)S(=O)(=O)c1ccccc1	-16	-6	1.7	3.7	0.74	i	6	0.2	-4
COc1ccc(Cl)cc1NC(=S)Nc1ccc(Cl)cn1	.	.	.	1.9	0.68	.	-3	2.4	.
CCOc1ccc(N2CC(C(=O)Nc3ccc(F)cc3F)CC2=O)cc1 (stereo not drawn)	.	.	.	0.6	0.7	.	-3	3.9	-3
C=CCOc1ccccc1CNn1nnnc1N	.	.	.	0.5	0.73	.	-4	1.1	-5
Cc1cc(C)c(C)c(OCC(=O)N2CCN(c3ccccn3)CC2)c1	-1	-10	-0.6	-0.5	0.68	i	-3	-1.6	-2
Cc1cc(C)c2c(c1)c(C)cc1nnc(SCC(=O)c3cccs3)n12	.	.	.	1.8	0.68	.	-2	-0.6	-4

A portion of the library. The share of hits here may be higher or lower than overall.
